# Compound activity from PubChem BioAssay.
# TRPML1 agonist: activates the human TRPML1 channel. TRPML1-expressing cells, Ca2+ dye fluorescence, FDSS; host cell line not named in the record; reference of the full effect not given here. activation, % (test concentration not listed). 410,000 compounds, 0.12% hits; in the data active = activation above about 50%; inconclusive = about 30% to 50%; inactive = below about 30%; note: 0% is about no effect; the text of the record puts the active cut at 80%
#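 Cells: TRPML1-DL, 1X Tet inducer, ~16 h at 37 degrees C/5% CO2. Dye: ABD Ca8 no-wash + quencher, 45-90 min RT. Read: 10 s baseline, compound add, 110 s agonist phase; 54-4 EC80 (4uM final), 110 s antagonist phase.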
# TRPML1 blocker: blocks the human TRPML1 channel | activity change, negative = inhibition, % (concentration not given with the values) | TRPML1-inducible cells, Ca2+ dye fluorescence, FDSS; stronger effect = lower value; inhibition of EC80 agonist-evoked calcium signal | AID 624415 | 390,000 compounds, 0.02% hits; in the data active means activity change below about -50%; inconclusive means about -30% to -50%; inactive means above about -30%;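 note: stimulus is agonist 54-4 at its EC80 concentration; % is set by controls: 0 for no effect and ±100 for the full control effect; the text of the record puts the active cut at -80%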
#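 Tet-induced TRPML1-DL cells loaded with Ca8 no-wash calcium dye were read kinetically on FDSS. Compound addition was followed by EC80 agonist 54-4 (4 uM final); inhibition was read over 110 s.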
# PINK1 modulator: changes PINK1 expression; 410,000 compounds, 0.2% hits; Potency, µM (series often up to 76.6 µM), without a hit: top-dose activation (PINK1 increase), actives largely listed as activators; AID 624263; PINK1 immunofluorescence, high-content cytometry, 24 h; active = well fitted activation curve with a large enough effect; inconclusive = small, poorly fitted or top-dose-only effect; inactive = flat fitted curve, though single readings scatter; cell line not stated here;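 note: potency is the fitted concentration of half-maximal effect; % of control where 0% means no effect; nearly all actives have a fitted effect of over 65% in size; a mitochondrial uncoupler was the plate control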
#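 A stable cell line was treated with compounds at 5 concentrations for 24 hours, with CCCP as control. PINK1 levels and mitochondrial localization were measured by immunofluorescence with mitochondrial, cell and nuclear markers after fixation, read by laser-scanning cytometry.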
# ClpP mod: qHTS Assay for Activators of ClpP; ATP-dependent Clp protease proteolytic subunit (Bacillus subtilis (strain 168)), P80244; 340,000 compounds, 1.9% hits; Potency, µM (top dose mostly 57.5 µM), inactives show top-dose activity change, negative = active; AID 651965, 2013; purified B. subtilis ClpP, FRET peptide cleavage, 20 min; active = well fitted falling curve with a large enough effect; inconclusive = small, poorly fitted or top-dose-only effect; inactive = no such curve, though single readings can be large or run the other way; note: potency is the fitted concentration of half-maximal effect; the source files actives as falling curves though it sought activators and does not explain the sign; nearly all actives have a fitted effect of over 65% in size; many hits overshoot -100%
# Target sequence (P80244 whole entry, looked up): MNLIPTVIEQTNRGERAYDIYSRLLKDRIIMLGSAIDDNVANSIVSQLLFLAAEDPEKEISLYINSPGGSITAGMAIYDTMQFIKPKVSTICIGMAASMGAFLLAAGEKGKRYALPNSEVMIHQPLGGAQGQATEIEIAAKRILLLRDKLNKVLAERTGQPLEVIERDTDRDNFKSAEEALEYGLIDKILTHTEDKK
#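 ClpP 10 microg/mL final, pH 8 Tris/KCl buffer with BSA, glycerol, Tween-20; compound pinned in; FRET-FV substrate; RT 20 min; Ex320/Em430; ΔFRET vs ADEP 5.8 microM, DMSO, no enzyme.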
# Sfp PPTase inh: Sfp phosphopantetheinyl transferase inhibition | Q9F4F7 | Biochemical Sfp PPTase activity, qHTS | Potency, µM, for inactives: max response, negative = inhibition, hits mostly inhibitors | 310,000 compounds, 3.5% hits; active = well fitted inhibition curve with a large enough effect; inconclusive = small, poorly fitted or top-dose-only effect, or another doubt; inactive = no such curve, though single readings can be large or run the other way;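 note: the enzyme is Sfp with the accession as filed and its product quenches rhodamine fluorescence; potency is the fitted concentration of half-maximal effect; 0% = enzyme reaction without inhibitor and -100% = no enzyme wells; top concentration of the series not given in the record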
#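 With Hepes-Na pH 7.6 buffer containing 10 mM MgCl2, Sfp (15 nM) modified BHQ-2-YbbR (12.5 uM) using rhodamine-CoA (5 uM). Two reads 30 minutes apart at 525/598 nm yielded each well's rate.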
# Menin-MLL FL inh: menin-MLL binding inhibition, fluorescein peptide. AID 1766. Fluorescence polarization, fluorescein-MLL peptide displacement from menin. 290,000 tested, under 10 active. FP activity change, % at 61.4 µM; inconclusive = falling polarisation curve, or a change in total fluorescence; inactive = total fluorescence flat and polarisation flat or rising; no compound was filed as active; the % refers to the polarisation; negative = inhibition;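 note: % of control where 0% means no effect; inhibitors lower the polarisation; unlabelled MLL peptide was the positive control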
# TRPV1 PAM: human TRPV1 potentiation; Q8NER1; potentiation, % at 8.33 µM; AID 540277; 320,000 compounds, 0.02% hits; TRPV1-expressing cells, Fluo-8 calcium influx, capsaicin EC20 potentiation; host cell line not named in the record; control for the full effect not named in the record; active means potentiation above 80%; inconclusive means 30% to 80%; inactive means below 30%; note: 0% is about no effect
# Target sequence (Q8NER1 whole entry, looked up): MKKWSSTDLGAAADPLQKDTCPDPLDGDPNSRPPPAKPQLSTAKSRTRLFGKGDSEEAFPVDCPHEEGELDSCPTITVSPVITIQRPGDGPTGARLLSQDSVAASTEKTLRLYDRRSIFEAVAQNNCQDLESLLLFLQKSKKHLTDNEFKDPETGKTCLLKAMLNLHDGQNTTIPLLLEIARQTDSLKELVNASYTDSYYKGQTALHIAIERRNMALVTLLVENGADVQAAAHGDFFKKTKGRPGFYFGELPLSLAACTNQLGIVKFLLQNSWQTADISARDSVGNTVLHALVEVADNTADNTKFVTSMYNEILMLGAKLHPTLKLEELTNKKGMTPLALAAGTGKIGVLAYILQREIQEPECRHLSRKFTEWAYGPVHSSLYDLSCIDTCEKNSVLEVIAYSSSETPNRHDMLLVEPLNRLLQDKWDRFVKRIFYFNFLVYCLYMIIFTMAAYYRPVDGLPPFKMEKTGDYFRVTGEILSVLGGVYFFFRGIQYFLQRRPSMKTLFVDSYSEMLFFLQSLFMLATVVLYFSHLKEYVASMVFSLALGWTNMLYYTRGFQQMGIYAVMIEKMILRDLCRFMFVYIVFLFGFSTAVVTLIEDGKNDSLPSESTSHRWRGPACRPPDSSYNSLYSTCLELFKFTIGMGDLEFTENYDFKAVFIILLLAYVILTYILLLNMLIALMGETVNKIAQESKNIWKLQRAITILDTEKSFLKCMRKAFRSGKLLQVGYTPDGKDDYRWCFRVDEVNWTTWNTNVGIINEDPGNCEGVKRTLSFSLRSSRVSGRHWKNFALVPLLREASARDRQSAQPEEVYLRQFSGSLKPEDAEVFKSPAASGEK
#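 Cells expressing TRPV1 were dye-loaded with Fluo-8 and read kinetically: 10 s baseline, 3 min after compound (agonist portion), then 2 min after EC20 capsaicin (allosteric enhancer portion). Calcium-bound dye fluorescence at 480/520 nm.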
# * hit, by the source's call; ? = inconclusive; / = not tested or not shown; & = joins results of further samples; [ ] = dose if it differs, or a comment.
(1) Cc1cc2ccccc2n2c(SCC(=O)Nc3cccc(C(F)(F)F)c3)nnc12
(2) NC(=O)c1ccccc1NC(=O)c1ccccc1S(=O)(=O)c1ccccc1[N+](=O)[O-]
(3) COc1ccc(OC)c(NC(=S)Nc2ccccc2)c1
(4) CCCNC(=O)NC(=O)COC(=O)c1ccc(OC)c(S(=O)(=O)N2CCCc3ccccc32)c1
(5) CCOCc1nnc(NC(=O)C2CC(=O)N(CCc3ccc(F)cc3)C2)s1 (centres undefined)
(6) CCc1nc(C)cn1S(=O)(=O)c1cc(OC)c(C)cc1C

Assay by compound	1	2	3	4	5	6
ClpP mod	-5.6%	0.6%	-0.7%	-0.5%	/	-0.8%
Menin-MLL FL inh	/	-0.2	-0.7	3.8	-0.2	-1.4
PINK1 modulator	1.9%	0.1%	0.6%	3.2%	-0.2%	-0.9%
Sfp PPTase inh	/	28.1%	10.3%	0.6%	-1.6%	-5.4%
TRPML1 agonist	2.6	-0.6	0.0	-0.2	0.1	-1.1
TRPML1 blocker	-4.4	-7.6	18.6	10.9	-4.5	-0.4
TRPV1 PAM	/	3.4	14.1	15.0	1.2	-9.4

(7) COc1ccccc1CNC(=O)CNC(=O)[C@@H]1Cc2ccccc2CN1
(8) CCOc1cc(C2C(C(=O)OC)=C(C)NC3=C2C(=O)c2ccccc23)cc(Cl)c1O (centres undefined)
(9) COc1ccc(OC)c(S(=O)(=O)N2CCC(C(=O)N(C)Cc3ccccc3)CC2)c1
(10) CC(C)CCn1c(CN2CCN(c3cccc(Cl)c3)CC2)nc2c1c(=O)n(C)c(=O)n2C
(11) COc1cc(C)c(Cl)cc1S(=O)(=O)NCc1ccco1
(12) O=C(NCc1cccnc1)/C(=C\c1ccc(-c2ccc(Br)cc2)o1)S(=O)(=O)c1ccccc1

Assay by compound	7	8	9	10	11	12
ClpP mod	-1.1%	1.2%	/	-0.7%	3.9%	-7.7%
Menin-MLL FL inh	/	/	-1.8	8.0	-0.2	4.0
PINK1 modulator	-1.2%	6.8%	2.2%	2.6%	6.4%	-1.0%
Sfp PPTase inh	0.0%	/	3.4%	-15.1%	10.5%	2.0%
TRPML1 agonist	-0.7	1.2	1.2	-0.4	0.1	-0.2
TRPML1 blocker	-2.9	16.0	1.0	-4.3	-15.6	31.9
TRPV1 PAM	12.8	/	5.0	2.9	-14.5	0.9

(13) O=C(CCCn1c(=S)[nH]c2cc3c(cc2c1=O)OCO3)NCCc1ccccc1Cl
(14) Cc1ccc2c(c1)C(c1ccc([N+](=O)[O-])cc1)=NNC(c1ccc(Br)cc1)=N2
(15) COc1ccccc1C(=O)NCCNc1nc2cc(C)cc(C)c2cc1C#N
(16) O=C(Nc1ccccc1)OC1C2CCC1C(N1CCCCC1)CC2 (centres undefined)
(17) O=C(NCc1ccco1)c1ccc(Cl)nc1
(18) O=c1[nH]c2ccccc2cc1-c1nnn(-c2ccc(Cl)c(Cl)c2)n1

Assay by compound	13	14	15	16	17	18
ClpP mod	6.1%	0.8%	4.9%	-1.8%	-0.6%	-7.5%
Menin-MLL FL inh	/	-0.4	4.4	-0.5	-1.5	/
PINK1 modulator	6.3%	7.9%	2.9%	-0.1%	-0.2%	0.7%
Sfp PPTase inh	16.3%	8.3%	0.3%	11.9%	8.1%	/
TRPML1 agonist	-0.5	1.1	-1.0	-0.1	-0.1	-0.7
TRPML1 blocker	17.0	-3.1	3.3	-2.3	-3.5	10.3
TRPV1 PAM	6.9	-6.9	-3.6	-2.7	-7.2	/

(19) COc1ccc(Cl)cc1Nc1nc(C)nc2c1oc1ccccc12
(20) CC1CN(C(=O)Nc2ccc3snnc3c2)c2ccccc21 (centres undefined)
(21) CCC1CCCCN1CCCNC(=O)Cn1nc(C)n2nc(-c3ccccc3)cc2c1=O (centres undefined)
(22) O=C(CCNC(=O)c1ccccc1)NCC1CCCCC1
(23) CC(=O)c1ccc(OC(=O)CCNC(=O)c2ccccc2)cc1
(24) CCOc1c2ccc(C(=O)NCc3cc(C(F)(F)F)cc(C(F)(F)F)c3)cc2nn1CCOC

Assay by compound	19	20	21	22	23	24
ClpP mod	?	-2.1%	-1.8%	-0.8%	0.1%	3.8%
Menin-MLL FL inh	-1.5	0.8	/	1.5	/	2.8
PINK1 modulator	-0.6%	4.1%	-1.5%	2.0%	0.7%	-0.9%
Sfp PPTase inh	?	28.9%	8.5%	10.5%	/	26.1%
TRPML1 agonist	3.2	-0.1	0.2	-0.2	0.1	0.2
TRPML1 blocker	-5.3	6.9	-18.6	11.8	13.5	-11.9
TRPV1 PAM	?	7.6	3.4	-2.5	/	13.7

# Compound profiles (already shown):
# COc1cc(C)c(Cl)cc1S(=O)(=O)NCc1ccco1 across the screens: ClpP mod: 3.9%; Menin-MLL FL inh: -0.2; PINK1 modulator: 6.4%; Sfp PPTase inh: 10.5%; TRPML1 agonist: 0.1; TRPML1 blocker: -15.6; TRPV1 PAM: -14.5
# CC(=O)c1ccc(OC(=O)CCNC(=O)c2ccccc2)cc1 across the screens: ClpP mod: 0.1%; Menin-MLL FL inh: /; PINK1 modulator: 0.7%; Sfp PPTase inh: /; TRPML1 agonist: 0.1; TRPML1 blocker: 13.5; TRPV1 PAM: /

# Further compounds.
(25) O=C(CCc1nc2ccccc2[nH]c1=O)OCc1ccc(S(=O)(=O)N2CCOCC2)cc1
(26) O=C(C1CCCO1)N1CCN(S(=O)(=O)c2ccc(F)cc2)CC1 (centres undefined)
(27) O=C(NC1CCCCCC1)c1c2c(nc3ccccc13)CCN(Cc1ccccc1)C2
(28) Cc1nn2c(=O)cc(COC(=O)c3cccc(NC(=O)COc4ccc(C)c(C)c4)c3)nc2s1
(29) CC(C)(C)c1cc(=O)[nH]c(SCc2ccccc2Cl)n1
(30) CCCCNC(=O)c1cn(CC)c2ccc(S(=O)(=O)N3CCCC3)cc2c1=O

Assay by compound	25	26	27	28	29	30
ClpP mod	?	-2.3%	-3.1%	?	/	-5.2%
Menin-MLL FL inh	5.1	/	0.8	/	0.4	-1.1
PINK1 modulator	-1.4%[38.3 µM]	0.7%	0.5%	0.9%	3.7%	-0.4%
Sfp PPTase inh	-8.9%	/	4.3%	/	22.7%	12.6%
TRPML1 agonist	2.1	0.1	0.3	3.2	1.9	0.4
TRPML1 blocker	-2.3	-5.5	14.1	1.4	-13.3	38.3
TRPV1 PAM	-0.1	-4.8	-11.9	/	-3.6	-11.1

(31) CCOC(=O)N/N=C/c1cn(Cc2ccc(F)cc2)c2ccccc12
(32) C[C@H](CO)N1C[C@H](C)[C@H](CN(C)C(=O)Nc2cccc(F)c2)Oc2cc(C#CC3(O)CCCC3)ccc2S1(=O)=O
(33) CCn1c(NCc2cccc(OC)c2OC)nc2ccccc21
(34) COc1ccc(C(=O)NCC(=O)N2CC=C(c3ccccc3)CC2)cc1OC
(35) O=C(NC1CC1)C1=C[C@H](C2CCCCC2)C[C@H](OCCCCO)O1
(36) Oc1cc2c(cc1O)CN(C(=S)NCCc1ccc(Cl)cc1)CCC2

Assay by compound	31	32	33	34	35	36
ClpP mod	3.5%	0.2%	0.7%	-1.5%	-17.4%	-1.4%
Menin-MLL FL inh	2.4	/	-1.3	/	1.3	-4.3&-9.6
PINK1 modulator	1.5%	3.3%	-2.0%	5.6%	0.6%	10.4%
Sfp PPTase inh	9.3%	/	17.7%	/	8.8%	44.7µM*
TRPML1 agonist	-0.7	-0.6	-1.5	0.4	0.1	1.7&-0.7
TRPML1 blocker	-9.6	-0.3	0.0	-8.2	8.3	30.0
TRPV1 PAM	4.7	/	9.2	8.3	-7.7	5.9

(37) C[C@H](NC(=O)OC(C)(C)C)C(=O)NCC1CCC(C(=O)N[C@@H](Cc2ccccc2)C(=O)O)CC1 (some centres undefined)
(38) O=C(NNc1ccc([N+](=O)[O-])cc1)c1ccccc1F
(39) Cc1ccc(CNC(=O)C(Cc2ccccc2)NS(=O)(=O)c2ccc3c(c2)CCC(=O)N3)cc1 (centres undefined)
(40) Cc1ccc(NC2CCCN(C(=O)c3c(C)noc3C)C2)cc1C (centres undefined)
(41) COc1cccc(-c2nc(CS(=O)(=O)CC(=O)N3CCc4ccccc4C3)c(C)o2)c1
(42) CCOC(=O)c1c(C)[nH]c2c1-c1ccccc1C(=O)C2=O

Assay by compound	37	38	39	40	41	42
ClpP mod	1.2%	/	0.5%	-0.8%	-11.0%	0.1%
Menin-MLL FL inh	1.4	12.5	0.1	/	0.3	-19.1
PINK1 modulator	0.4%	-0.1%	-0.1%	-1.2%	1.1%	-1.3%
Sfp PPTase inh	4.5%	-8.2%	6.9%	4.7%	-8.6%	5.0%
TRPML1 agonist	-0.6	0.1	-0.1	-0.1	-0.1	0.9
TRPML1 blocker	3.9	-4.1	5.5	-2.9	0.6	-7.4
TRPV1 PAM	-17.4	1.0	?	-1.5	-14.8	12.1

(43) Cc1ccc(N2C(=O)CC(Sc3nc(-c4ccccc4)c4cc(Cl)ccc4n3)C2=O)c(C)c1 (centres undefined)
(44) Cc1ccccc1CN(c1ccc(C(=O)Nc2ccccc2C(=O)NCc2ccco2)cc1)S(C)(=O)=O
(45) CCCc1cc(=O)oc2c(C)c(OCC(=O)NC3CC(C)(C)NC(C)(C)C3)ccc12
(46) O=c1c2ccccc2sc2ccccc12
(47) CCCNC(=O)c1cc2n(n1)CCCN(Cc1ccc(C)cc1)C2=O
(48) O=C(Nc1ccc(Cl)cc1)OCCN1CCOCC1
(49) O=C1CC2(CON=C2c2ccc(F)cc2)C(=O)N1c1ccc(F)cc1 (centres undefined)
(50) Cc1noc(C)c1COc1cccc(C(=O)N(C)Cc2nc3ccccc3c(=O)[nH]2)c1
(51) COc1ccc(-c2noc(CSc3nc4ccccc4c(=O)n3-c3ccccc3)n2)cc1

Assay by compound	43	44	45	46	47	48	49	50	51
ClpP mod	-5.7%	?	/	0.6%	0.4%	/	-0.5%	-3.8%	-5.0%
Menin-MLL FL inh	3.2	2.0	/	/	/	/	4.7	/	1.1
PINK1 modulator	13.2%	3.7%[38.3 µM]	11.7%	0.4%	1.1%	0.5%	1.7%	1.0%	6.8%[38.3 µM]
Sfp PPTase inh	9.7%	-11.2%	6.8%	/	/	/	1.5%	/	?
TRPML1 agonist	0.0	3.0	-0.4	0.4	-0.8	-0.3	-0.3	-0.7	-0.6
TRPML1 blocker	-2.7	0.1	1.4	16.1	-21.3	0.9	4.3	-0.4	-10.8
TRPV1 PAM	-9.2	?	4.7	/	/	/	-3.9	3.2	7.3
